KCNQ2 block – KCNQ2 potassium channel inhibitors, primary screen, cell-based, CHO-K1, FluxOR thallium flux, B-score (AID 2156). Potassium voltage-gated channel subfamily KQT member 2 (Rattus norvegicus), O88943. 20 min; hits give low values; only compounds with negative scores are shown here; some inactives read as strong as hits. B-score at 10 µM. actives 1.1% (n = 310,000);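 active = fluorescence ratio B-score at most minus 3 library SDs, with starting brightness B-score within 2 library SDs, cut at about -5.5 in these data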
Target sequence (O88943 whole entry, looked up): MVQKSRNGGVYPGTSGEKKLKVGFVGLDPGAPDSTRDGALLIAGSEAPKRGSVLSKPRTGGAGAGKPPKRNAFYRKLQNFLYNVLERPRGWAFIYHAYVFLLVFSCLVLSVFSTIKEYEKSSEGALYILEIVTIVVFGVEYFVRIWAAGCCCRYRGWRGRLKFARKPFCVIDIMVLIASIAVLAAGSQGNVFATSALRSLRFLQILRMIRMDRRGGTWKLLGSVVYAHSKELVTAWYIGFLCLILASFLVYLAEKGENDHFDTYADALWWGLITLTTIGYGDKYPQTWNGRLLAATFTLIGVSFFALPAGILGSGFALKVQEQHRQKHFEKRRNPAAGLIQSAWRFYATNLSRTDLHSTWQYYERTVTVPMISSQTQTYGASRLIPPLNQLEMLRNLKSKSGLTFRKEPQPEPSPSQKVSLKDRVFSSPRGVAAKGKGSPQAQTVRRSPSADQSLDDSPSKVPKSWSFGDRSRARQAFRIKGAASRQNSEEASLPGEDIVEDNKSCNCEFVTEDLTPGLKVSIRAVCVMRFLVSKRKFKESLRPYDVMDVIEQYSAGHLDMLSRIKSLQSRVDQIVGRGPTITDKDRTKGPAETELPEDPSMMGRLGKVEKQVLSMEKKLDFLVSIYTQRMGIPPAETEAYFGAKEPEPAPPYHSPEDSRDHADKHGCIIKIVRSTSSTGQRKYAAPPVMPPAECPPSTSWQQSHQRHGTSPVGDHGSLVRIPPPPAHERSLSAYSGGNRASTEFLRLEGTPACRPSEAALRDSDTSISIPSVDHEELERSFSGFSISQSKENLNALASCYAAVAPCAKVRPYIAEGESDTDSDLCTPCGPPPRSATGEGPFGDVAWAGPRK
KCNQ2 block baseline – further read-out of KCNQ2 block, marked with its call; B-score; measured here: initial fluorescence intensity artifact check;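 brightness before thallium and not channel activity; 0 = typical well and far values either way flag optical interference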
Numbers without * were called inactive; i = inactive.

compound | KCNQ2 block | KCNQ2 block baseline
CCCCC(CC(O)COCC(C)C)C(=O)NN (stereo not given) | i | 0.07
CCN(C(=O)c1cc(S(=O)(=O)N2CCc3ccccc32)cn1C)c1ccccc1 | i | 0.07
Cn1c(=O)c(C(=O)NCc2ccc(Cl)cc2)c(O)c2ccccc21 | i | 1.3
COc1ccc(NC(=O)C(Cl)=C(Cl)Cl)cn1 | i | 1.5
Cc1ccc(-n2c(CNC(=O)c3cccs3)nnc2SCC(=O)NO)cc1 | i | 2.7
COC(=O)c1sccc1NC(=O)c1cc(-c2cccc(C)c2)nc2ccccc12 | i | 1.6
CCCCOc1ccc(/C=N/NC(=O)c2csc(C)c2C)cc1 | i | -0.02
COc1ccc(-n2c(=O)c3c4c(sc3n(CC(=O)NCC3CCCO3)c2=O)CCCC4)c(OC)c1 (stereo not given) | i | -0.12
O=C(CSc1nc2ccccc2c(=O)[nH]1)c1cccs1 | i | -2.1
COc1ccc(-c2cc(C(F)(F)F)nc(SCCC(=O)N3CCN4CCCC4C3)n2)cc1 (stereo not given) | i | -1.2
COc1ccccc1C1C(C(N)=O)=C(C)Nc2ncnn21 (stereo not given) | i | 0.37
Cc1cccc2cc(C(c3nnnn3Cc3ccc4c(c3)OCO4)N3CCCC3)c(=O)[nH]c12 (stereo not given) | i | 0.39

The last seven compounds of the part above come first, to join the parts.
compound | KCNQ2 block | KCNQ2 block baseline
COC(=O)c1sccc1NC(=O)c1cc(-c2cccc(C)c2)nc2ccccc12 | i | 1.6
CCCCOc1ccc(/C=N/NC(=O)c2csc(C)c2C)cc1 | i | -0.02
COc1ccc(-n2c(=O)c3c4c(sc3n(CC(=O)NCC3CCCO3)c2=O)CCCC4)c(OC)c1 (stereo not given) | i | -0.12
O=C(CSc1nc2ccccc2c(=O)[nH]1)c1cccs1 | i | -2.1
COc1ccc(-c2cc(C(F)(F)F)nc(SCCC(=O)N3CCN4CCCC4C3)n2)cc1 (stereo not given) | i | -1.2
COc1ccccc1C1C(C(N)=O)=C(C)Nc2ncnn21 (stereo not given) | i | 0.37
Cc1cccc2cc(C(c3nnnn3Cc3ccc4c(c3)OCO4)N3CCCC3)c(=O)[nH]c12 (stereo not given) | i | 0.39
Oc1ccc(N=Nc2ccccc2)cc1 | i | 0.61
COc1ccc(N/C=C(\C#N)S(=O)(=O)c2ccc(Cl)cc2)c(OC)c1 | i | 0.41
O=C(Nc1cccc2ccccc12)N(CCO)C1CCS(=O)(=O)C1 (stereo not given) | i | 0.31
CCCn1nc(C(=O)N2CCCc3ccccc32)c2ccccc2c1=O | i | 1.9
Cc1onc(-c2ccccc2)c1C(=O)N1CCN(c2ncccc2C(F)(F)F)CC1 | i | -0.43
O=C(COC(=O)CCC1CCCC1)Nc1nc2c(F)c(F)c(F)cc2s1 | i | -0.01
Cc1sccc1C1C(C#N)=C(N)SC(N)=C1C#N | i | 0.48
COc1cc(/C=C/C(=O)OCC(=O)N2CCC(Cc3ccccc3)CC2)ccc1O | i | 1
CCC(CC)C(=O)N1CCCC(c2nc(-c3cccs3)no2)C1 (stereo not given) | i | 0.1
O=C(CSc1ncnc2nc[nH]c12)c1ccc(Cl)cc1 | i | -1
Cc1cccc(N2C(=O)C(CC(=O)Nc3cccc(F)c3)N(CCc3ccncc3)C2=O)c1 (stereo not given) | i | 1.6
CN1CCN(NC(=O)CN2C(=O)S/C(=C\c3c(Cl)cccc3Cl)C2=O)CC1 | i | 0.87
CC(C)C[C@H](NC(=O)CCn1nnc2ccccc2c1=O)C(=O)O | i | -0.08
COc1ccc(CC(=O)Nc2nc(C(C)(C)C)cs2)cc1 | i | 0.8
COc1cccc(CNCCSc2nnnn2C)c1OC | i | 1.1
Cc1cc(C)n2nc(C(=O)OCC(=O)c3cc(C)n(CC4CCCO4)c3C)nc2n1 (stereo not given) | i | 2.3
CCOC(=O)c1cnn(-c2ccccc2)c1-n1cccc1 | i | 1.2
COc1cc(N(C(=O)Cc2cccs2)C(C(=O)NC2CCCCC2)c2cccc(OC)c2OC)ccc1-n1cnnn1 (stereo not given) | i | 0.11
CCCCC(=O)Nc1ccc2c(c1)nc1n2CCOC1 | i | -0.29
CC(C)c1nnc(NC(=O)CSc2ccccc2)s1 | i | 0.21
COc1cccc(CC2(CO)CCCN(Cc3sc(N4CCCC4)nc3Cl)C2)c1 (stereo not given) | i | 1.8
CCOC(=O)C1CCN(CC(=O)N(CC(C)C)c2c(N)n(CC(C)C)c(=O)[nH]c2=O)CC1 | i | -2.4
CC(Nc1ccc(F)cc1)=[N+](C)CCNS(=O)(=O)c1ccc(Cl)cc1 | i | 0.96
NS(=O)(=O)c1ccc(NS(=O)(=O)/C=C/c2ccccc2)cc1 | i | 1.1
O=C(O)C1CCCN1c1ncccn1 (stereo not given) | i | -0.74
COc1ccc(S(=O)(=O)Nc2cccc(C)c2C)c2cccnc12 | i | -0.05
O=c1c2cc([N+](=O)[O-])ccc2nc(CN2CCN(c3ccccn3)CC2)n1-c1ccccc1F | i | -0.68
NS(=O)(=O)c1ccc(CCNC(=O)c2coc3ccccc3c2=O)cc1 | i | -0.3
CCOC(=O)N1CCN(C(=O)CSc2ccc(-c3ccc(OC)c(OC)c3)nn2)CC1 | i | 0.1
O=C(CSCc1ccc(Cl)cc1)N1CCOCC1 | i | 0.57
c1ccc(-c2cc(-c3nnc4n3N=C(c3ccc5ccccc5c3)CS4)[nH]n2)cc1 | i | -0.98
COc1ccccc1N1CCN(CCCNC(=O)C2CCCN(c3ncnc4c3nc3n4CCCCC3)C2)CC1 (stereo not given) | i | -0.25
Cc1cc([N+](=O)[O-])cc2c1-c1ncccc1C2=Nc1ccccc1 | i | 0.01
O=C(O)Cn1cc(C(=O)c2ccco2)c2ccccc21 | i | 0.96
COc1ccc(N2C(=O)C3CCCN3C2=S)cc1 (stereo not given) | i | -1.6
CC(C)OCC1CC(CC(=O)NC(=S)Nc2cccc([N+](=O)[O-])c2)C(=O)O1 (stereo not given) | i | -0.48
C=CCOc1ccccc1CN1CCCN(C)CC1 | i | 0.13
COc1ccccc1Nc1nc(N)nc(CN2CCN(Cc3ccccc3)CC2)n1 | -9.9* | -0.19*
CCn1cc(C(=O)N(CCC(C)C)c2c(N)n(Cc3ccccc3)c(=O)[nH]c2=O)c(=O)c2ccc(C)nc21 | i | 2.6
COC(=O)c1cc(S(=O)(=O)Nc2nn(C)c3ccccc23)oc1C | i | -0.71
Cc1ccc(CN(C(=O)COc2ccc([N+](=O)[O-])cc2)C2CCS(=O)(=O)C2)o1 (stereo not given) | i | 1.1
Cc1ccc(O)c(CNc2ccccn2)c1 | i | -1
Cc1ccc(OCc2cn3cccnc3n2)cc1 | i | 3
CCN(CC)c1ccc(CN(C(=O)c2cccs2)C2CCS(=O)(=O)C2)cc1 (stereo not given) | i | -1.5
Cn1c(O)c(C2=c3ccccc3=NC2=O)sc1=Nc1ccc(Cl)cc1 | i | -0.06
Cc1ccc(N(CC(=O)NC(C)C)C(=O)CCC(=O)Nc2nccs2)cc1 | i | -1.5
Cc1c(NC(=O)C2Cc3ccccc3CN2C(=O)c2ccco2)c(=O)n(-c2ccccc2)n1C (stereo not given) | i | -0.79
N#Cc1ccc(Cl)cc1NC(=O)COC(=O)c1ccc2c(c1)OCCO2 | i | -2.5
CN(C)C(=O)COc1ncnc2sc(-c3ccccc3)cc12 | i | 1.4
Cc1ccc(/C=C/C(=O)Nc2nnc(SCc3ccc(C#N)cc3)s2)o1 | i | -0.25
Cc1ccc2c(CC(=O)N(C)c3c(N)n(Cc4ccccc4)c(=O)[nH]c3=O)coc2c1 | i | 0.48
Nc1nccnc1C(=O)OCC(=O)N1CCN(S(=O)(=O)c2ccc(Cl)cc2)CC1 | i | 0.76
CS(=O)(=O)c1ccc2nc(NC(=O)CCS(=O)(=O)c3ccccc3)sc2c1 | i | -0.54
Cc1cc(=O)oc2cc(OCc3cc4c(cc3Cl)OCO4)ccc12 | i | 4.1
Cc1cc(C)c(OCC(=O)OC(C)C(=O)NC2CC2)c(C)c1 (stereo not given) | i | -0.02
CCc1nn(CC(=O)NCCCN2CCN(C)CC2)c(=O)c2cc3sc(C)cc3n12 | i | 0.02
CCOC(=O)C1C2C=CC3(CN(Cc4ccccc4)C(=O)C13)O2 (stereo not given) | i | -2.3
CCn1cc(C(=O)N[C@@H](C)C(=O)NCCCn2ccnc2)c(=O)c2cc3c(cc21)OCO3 | i | 2.9
COc1ccc(OC)c(NC(=O)CCNC(=O)c2ccco2)c1 | i | 0.95
COc1cccc(C(=O)CC(=O)C(=O)Nc2cc(Cl)c(OC)cc2OC)c1 | i | -0.66

Next results follow.
compound | KCNQ2 block | KCNQ2 block baseline
CC1CCc2c(sc3nc(CN4CCN(S(=O)(=O)c5ccccc5[N+](=O)[O-])CC4)[nH]c(=O)c23)C1 (stereo not given) | i | 1.9
Cc1ccc(NC(=O)C2CCN(C(=O)NCc3ccccc3)CC2)cc1C | i | -1.8
CCOc1ccc(S(=O)(=O)N2CCC(C(=O)NCCc3ccccc3)CC2)cc1 | i | 1
CCn1cc(CN2CCC(Oc3ccc(C(=O)N4CCCCC4)cc3)CC2)cn1 | i | -0.75
O=C(COC(=O)c1cccc(S(=O)(=O)N2CCOCC2)c1)NCCc1ccccc1 | i | 0.94
O=S(=O)(c1ccccc1)c1nc(-c2ccco2)oc1Nc1ccccc1 | i | 4.4
Cc1cc(C)cc(NC(=O)N(CCC#N)Cc2cccs2)c1 | i | -1.1
COc1cc(C)c(S(=O)(=O)NCCCn2ccnc2)cc1C | i | 1.4
C=CCOC(=O)C1=C(C)NC(=O)NC1/C=C/c1ccccc1 (stereo not given) | i | -0.29
O=C(NCc1ccccc1)C(=O)NCC1OCCN1S(=O)(=O)c1ccc2c(c1)OCCO2 (stereo not given) | i | 1.7
CS(=O)(=O)N1CCCC(C(=O)Nc2ccccc2F)C1 (stereo not given) | i | 2.4
Cn1c(=NC(=O)CCS(=O)(=O)c2ccccc2)sc2cc(F)ccc21 | i | 0.31

Two of these compounds in a different format.
| KCNQ2 block | KCNQ2 block baseline | SMILES |
| --- | --- | --- |
| i | 0.94 | O=C(COC(=O)c1cccc(S(=O)(=O)N2CCOCC2)c1)NCCc1ccccc1 |
| i | 4.4 | O=S(=O)(c1ccccc1)c1nc(-c2ccco2)oc1Nc1ccccc1 |

Other compounds follow.
compound | KCNQ2 block | KCNQ2 block baseline
O=c1cnnc(Nc2cccc(C(F)(F)F)c2)[nH]1 | i | 0.34
CC(=O)Nc1ccc(S(=O)(=O)N2CCC(C(=O)NCCC(=O)NCc3ccccc3)CC2)cc1 | i | -0.58
COc1ccc(CN2CCCC(N3CCN(c4ccc(OC)cc4)CC3)C2)cc1 (stereo not given) | i | 1.8
CC(=O)c1ccc(NC(=O)CCNS(=O)(=O)c2cccc3nonc23)cc1 | i | -1.3
COC(=O)CCC(=O)Nc1ccc(S(=O)(=O)Nc2nc(C)cc(C)n2)cc1 | i | 0.75
CCN(CC)C(=O)c1sc(N)c(C#N)c1C | i | -0.55
CC(O)CNc1nc2ccccc2n1CC(=O)NC12CC3CC(CC(C3)C1)C2 (stereo not given) | i | -1.1
CCN(CC)CCCNC(=O)CCC(=O)NNc1nc2ccccc2c2nc(C)nn12 | i | 1.5
COCCNC(=S)N(CCc1c(C)[nH]c2ccc(C)cc12)Cc1ccco1 | i | 1.2
COc1ccc(/C=C2\Sc3ccc(C(=O)NCc4cccnc4)cc3N(C)C2=O)cc1OC | i | -0.08
O=C(N/N=C\c1ccc(Cl)s1)c1ccc(Cn2cccn2)o1 | i | 1.3
CCOC(=O)C1(Cc2ccc(OC)cc2)CCN(C(=O)C2=CCCC2)CC1 | i | 0.09
CC1CCN(C(=O)c2ccc(NS(C)(=O)=O)cc2)CC1 | i | 0.12
CC1=CC(C)[C@@H]2COC(c3ccc(O)cc3)[C@H]1C2C (stereo not given in full) | i | -0.57
Nc1c(C(=O)NCc2ccccc2)nnn1Cc1cccc(Cl)c1 | i | 0.68
Cc1ccc2nc(N(CCCN(C)C)C(=O)c3ccc(S(=O)(=O)N4CCOCC4)cc3)sc2c1 | i | -1.2
O=[N+]([O-])c1ccc(O)c(Nc2ncnc3ccccc23)c1 | i | 0.47
COc1cc(SC)ccc1C(=O)Nc1cccc(S(=O)(=O)NC2=NCCCCC2)c1 | i | 1.5
COc1ccccc1N1CCN(CC(O)COc2ccc3c(c2)CCC3)CC1 (stereo not given) | i | 0.11
NC(=S)N/N=C1\c2ccccc2-c2c(C(=O)O)cccc21 | i | -0.23
CN(C)CC(C)(C)CNS(=O)(=O)c1ccc(Cl)s1 | i | -0.31
COc1cc(OC)cc(C(=O)NC2CCCN(Cc3ccc(Cl)cc3)C2)c1 (stereo not given) | i | 2.3
CCC(C)c1ccccc1N1CC(C(=O)Nc2ccccc2N2CCCC2)CC1=O (stereo not given) | i | -0.19
Cc1nc2nc(C)c(NS(=O)(=O)c3ccc(Cl)cc3)c(=O)n2[nH]1 | i | 1.1
O=C1c2ccccc2C(=O)N1CN(C(=O)COc1ccc(Cl)cc1Cl)c1cccc(F)c1 | i | 0.45
COc1cc(NC(=O)c2ccc3c(c2)OCO3)ccc1NC(=O)C(C)C | i | 2.2
COc1cc(NS(=O)(=O)c2ccc(NC(=O)COc3ccc(C)cc3)cc2)nc(OC)n1 | i | -0.18
COc1ccc(-n2nc(C(=O)NCC(=O)N3CCOCC3)c3ccccc3c2=O)cc1Cl | i | -0.94
O=S(=O)(NC1CCCC1)c1ccccc1Cl | i | -0.29
CCCCn1c(NCc2ccccc2NS(=O)(=O)c2ccc(C)cc2)nc2ccccc21 | i | 0.39

From PubChem

The list is partial; rates above refer to the full screens.
